Screens as filed in PubChem BioAssay.
miR-21 reporter: miR-21 reporter, rising signal; HeLa miR-21 FLuc reporter, luciferase, 48 h; 340,000 tested, under 10 active; AID 2288; Potency, µM (top dose mostly 38.3 µM), for the others: at the top dose reporter change, positive = more light; active = well fitted rising curve with a large enough effect; inconclusive = small, poorly fitted or top-dose-only effect; inactive = no such curve, though single readings can be large or run the other way;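 further: % of control where 0% means no effect; miR-21 action dims this reporter so a rising signal means less miR-21 action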
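Luminescence from a firefly luciferase reporter carrying a miR-21 binding site downstream, stably expressed under a CMV promoter in HeLa cells that make miR-21 endogenously, reports miRNA modulation after 48 h compound exposure up to approximately 40uM final.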
GLA inh pH 4.5: alpha-galactosidase A (human) inhibition, pH 4.5; activity change, negative = inhibition, % at 105 µM; 230,000 tested, under 10 active; AID 1467; P06280; purified enzyme, 4-MU-alpha-Gal fluorescence, pH 4.5; inconclusive = small, poorly fitted or top-dose-only inhibition, or a rising curve; inactive = flat fitted curve, though single readings scatter; no compound was filed as active;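 further: 0% = full activity with enzyme and -100% = basal without enzyme; dose as in the result columns while the protocol names 77 µM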
Target sequence (P06280 whole entry, looked up): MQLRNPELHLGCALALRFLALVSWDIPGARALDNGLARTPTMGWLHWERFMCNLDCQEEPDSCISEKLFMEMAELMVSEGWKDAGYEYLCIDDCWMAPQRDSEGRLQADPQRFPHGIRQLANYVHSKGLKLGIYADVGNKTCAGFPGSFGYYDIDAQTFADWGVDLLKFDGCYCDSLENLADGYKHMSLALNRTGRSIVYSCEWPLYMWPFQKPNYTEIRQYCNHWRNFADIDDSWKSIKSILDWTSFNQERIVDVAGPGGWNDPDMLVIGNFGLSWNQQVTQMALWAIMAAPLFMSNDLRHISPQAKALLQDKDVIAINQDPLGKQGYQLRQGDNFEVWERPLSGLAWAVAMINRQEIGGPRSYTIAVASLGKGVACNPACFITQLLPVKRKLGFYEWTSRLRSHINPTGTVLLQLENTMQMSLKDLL
Rango dissoc inh: prevents RanGTP from dissociating the Rango-importin beta complex | Potency, µM (top dose mostly 46.1 µM), inactives show at the highest dose activity change, negative = inhibition | AID 540253 | 340,000 tested, 0.071% active | Biochemical FRET Rango-importin beta, RanGTP-induced dissociation; active means falling FRET ratio curve, often poorly fitted, with flat reads before Ran was added; inconclusive means other falling curves, or compound fluorescence or quenching; inactive means flat or rising ratio curve;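 further: potency means the concentration at half of the fitted maximal effect; % of control where 0% means no effect; nearly all actives have a fitted effect of over 45% in size; -100% = wells without RanGTP and RCC1; the record marks most hits as doubtful in a second field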
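Rango/importin beta premix (0.1/0.25 uM final), PBS + 1 mM DTT + 0.02% Tween-20 + 0.1% BSA; cpd 5 min RT; FRET pre-read; + RanGTP-RCC1 (0.6 uM Ran, 2 mM GTP, 0.2 uM RCC1); 45 min RT; FRET post-read, ex 430, em 486/530 nm.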
Rango-impB inh: Rango-importin beta binding inhibition; Rango CFP/YFP FRET sensor + importin beta, 45 min; Potency, µM (series often up to 92.2 µM), for the others: at the highest dose inhibition of complex formation; 340,000 tested, 0.031% active; Q14974; active = rising FRET ratio curve, often small or poorly fitted; inconclusive = mostly compound fluorescence or quenching in the first reads; inactive = flat curves in all reads;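 further: potency means the concentration at half of the fitted maximal effect; 0% = DMSO wells and 100% = buffer wells lacking importin beta; nearly all actives have a fitted effect of over 15% in size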
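FRET biosensor (snurportin 1 IBB flanked by EYFP and cerulean), 50 nM, with compound 5 min, then 0.125 microM importin beta in PBS, 1 mM DTT, 0.02% Tween-20, 0.1% BSA. CFP/YFP ratio read after 45 min at room temperature; pre-read flags interference.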
Active calls of the source: *; ? = inconclusive; / = no result given. Some of the compounds tested, so the mix of outcomes need not match the whole.

SMILES	miR-21 reporter	GLA inh pH 4.5	Rango dissoc inh	Rango-impB inh
COc1ccc(NC(=O)CN(C)C(=O)c2sc3cc(Cl)ccc3c2Cl)cc1	/	/	-6%	-0.4%
CCc1ccccc1N1C(=O)CC(Sc2nccc(C)n2)C1=O (stereo not given)	0%	/	-9%	-1.1%
C=CCn1c(=N)c(C(=O)NCCCOC)cc2c(=O)n3ccccc3nc21	-3%	13	?	?
Brc1cccc(OCCN2CCCCC2)c1	-9%	-9	1%	5.1%
Cn1cc(C(=O)NC2CCCCCCC2)c(=O)c2cc(S(=O)(=O)N3CCCC3)ccc21	-6%	-12	0%	-2.8%
CCCNC(=O)c1ccc(-c2nn(C)c(=O)c3ccccc23)cc1	-1%	/	7%	12%
CC[C@]1(C(=O)OC)[C@H]2C(=O)N(Cc3ccccc3)C(=O)[C@H]2[C@H]2CN=C(SCc3ccc(C(=O)OC)cc3)N21	/	/	10%	-6.1%
COc1ccc(C(=O)Cn2ccsc2=NC(C)=O)cc1	-12%	1	-11%	-0.3%
CCOC(=O)c1ccc(N=Nc2c(C)[nH]n(-c3ccccc3)c2=O)cc1	-2%	/	1%	2.3%
CCOC(=O)/C=C1\SCC(=O)N1CCOc1cccc(Br)c1	-4%	-7	15%	6.0%
COc1ccc(N2C(=O)C(Cl)=C(N3CCN(Cc4ccccc4)CC3)C2=O)cc1	5%	-1	5%	-1.1%
CCCCOC(=O)Nc1ccc(N(C)C)cc1	-44%	0	-20%	0.7%
O=C(Nc1cccc(C(=O)N2CCOCC2)c1)c1ccccc1Br	0%	/	11%	-2.5%
CCOc1ccc(/C=C2\CCC(C3CCCC3)C2=O)cc1 (stereo not given)	-12%	/	-5%	5.0%
CCOC(=O)N1CCN(c2nc(-c3cccs3)cc(C(F)(F)F)n2)CC1	-1%	4	?	0.8%
Cc1ccc(NS(=O)(=O)c2cccc(C(=O)NNC(=O)NC3CCCCC3)c2)c(C)c1	0%	5	4%	-1.3%
CC1(C(=O)Nc2nccs2)Cc2ccccc2C(=O)O1 (stereo not given)	0%	-6	12%	-1.3%
CN(C)c1ccc(NC(=O)COC(=O)Cn2nnc3ccccc32)cc1	-10%	1	18%	0.7%
CCc1ccc(OCC(=O)OCC(=O)c2c(N)n(C)c(=O)n(C)c2=O)cc1	-3%	2	-5%	6.3%
COc1cccc(C(O)c2cnc(C(C)C)n2C)c1 (stereo not given)	3%	-5	-10%	-1.9%
CCOC(=O)C1=C(C)OC(N)=C(C#N)C1c1c(C)nn(-c2ccc(C)cc2)c1Cl (stereo not given)	-9%	-4	/	/
CCO[C@@H]1OC(C(=O)N2CCN(Cc3ccc4c(c3)OCO4)CC2)=C[C@H](c2csc3ccccc23)[C@H]1CCCO	29%	?	0%	-2.1%
Cc1cccc(-c2cc(C(=O)Nc3c(C)n(C)n(-c4ccccc4)c3=O)c3ccccc3n2)c1	5%	/	13%	-0.2%
O=C(CSc1n[nH]c(-c2ccccc2Cl)n1)NCc1cccc(C(=O)O)c1	2%	-5	12%	-0.3%
CC(=O)Nc1ccc(S(=O)(=O)N2CCC(C(=O)NC3CCCC3)CC2)cc1	0%	/	-23%	5.3%
CNC(=O)c1ccc(NC(=O)CN2c3cccc4cccc(c34)S2(=O)=O)cc1	/	/	-12%	?
Cc1cc2oc(=O)cc(CN3CCOCC3)c2cc1O	-4%	/	12%	-5.3%
COc1ccc(Cl)cc1NC(=O)CN(C)C(=O)c1cccc(S(=O)(=O)N2CCN(C)CC2)c1	/	/	-3%	0.4%
CCCCSCCCNC(=O)c1ccc(CS(=O)(=O)c2ccc(OC)cc2)o1	6%	/	-4%	0.5%
CCN(c1ccccc1)c1nc2nonc2nc1NCCO	-10%	-1	-8%	1.8%
C/C(=N\NC(=O)c1nnn(-c2nonc2N)c1CN(C)c1ccccc1)c1cccs1	-6%	/	2%	2.4%
CCn1cc(-c2n[nH]c(=S)n2-c2ccc(C)cc2Br)c(=O)c2ccc(C)nc21	-18%	-8	13%	?
Cc1nc(N2CCN(c3ccccn3)CC2)c2c(C)c(C(=O)Nc3ccc(Cl)cc3)sc2n1	1%	/	-19%	-3.4%
CCOC(=O)C1(Cc2ccc(OC)cc2)CCN(C(=O)CC2CCC(=O)N2)CC1 (stereo not given)	-10%	7	4%	0.8%
CC(C)(C)NC(=O)c1ccc(C(=O)NC(C)(C)C)cc1	2%	6	29%	-1.1%
O=c1[nH]n(-c2ccc([N+](=O)[O-])cc2)c(=O)c2ccccc12	-10%	2	8%	0.7%
C/C(=N\NC(=O)C(=O)Nc1cccc(C(F)(F)F)c1)c1ccc(Cl)s1	0%	5	?	0.0%
COCCNC(=O)Cc1ccc(Br)cc1	1%	3	11%	0.2%
COCCn1c(=NC(=O)c2ccc(S(=O)(=O)N3CCc4ccccc4C3)cc2)sc2cc(S(N)(=O)=O)ccc21	-20%	16	0%	-2.5%
CCN(CC)c1ccc(C2Nc3cccc4cccc(c34)N2)c(O)c1	-28%	4	-14%	4.7%
C[C@H](NC(=O)c1nc[nH]c1C(=O)NCC(=O)OC(C)(C)C)C(=O)OC(C)(C)C	6%	4	-2%	3.8%
CCCN1C2CCCC1CC(NC(=O)Nc1cccc(C(C)=O)c1)C2 (stereo not given)	-6%	-4	-7%	-0.7%
CCOc1cc(C(N)=O)cc(Br)c1OC	14%	4	1%	-0.4%
CN(C)CCN(Cc1cc2cc3c(cc2[nH]c1=O)OCO3)C(=S)NCC1CCCO1 (stereo not given)	0%	4	8%	-3.7%
Cc1cc(NNC(=O)c2ccccc2)nc(NNC(=O)c2ccccc2)n1	3%	-15	6%	3.4%
Cc1ccc(S(=O)(=O)N2CCN(c3ccc([N+](=O)[O-])c4cccnc34)CC2)cc1	-27%	-7	-15%	0.8%
CSCC[C@H](NC(=O)OC(C)(C)C)c1nnc(SCC(N)=O)o1	1%	5	1%	0.7%
O=C(CSc1nnnn1C1CCCC1)N1CCCc2ccccc21	-18%	1	1%	3.2%
FC(F)(F)c1cccc(NC(=S)NNC(=S)Nc2ccc(Cl)cc2)c1	?	-2	/	/
CCCCOc1ccc(-c2nnn(CC(=O)NCc3ccco3)n2)cc1	-7%	4	-9%	-1.8%
NCCCCC(NC(=O)C1CCCN1C(=O)C1CSSCC(N)C(=O)NC(Cc2ccc(O)cc2)C(=O)NC(Cc2ccccc2)C(=O)NC(CCC(N)=O)C(=O)NC(CC(N)=O)C(=O)N1)C(=O)NCC(N)=O (stereo not given)	-3%	1	/	/
COC(=O)c1cccc(NC(=O)c2ccc[n+]([O-])c2)c1	-5%	/	-16%	-2.7%
Cc1csc(=O)n1CC(=O)OC(C)C(=O)Nc1cccc(Cl)c1 (stereo not given)	/	/	-3%	-1.7%
N#CCCN(C1CCCCC1)S(=O)(=O)CCOc1ccccc1	-11%	2	-8%	-0.6%
COc1ccc(NC(=O)C2CCCN(S(=O)(=O)c3cccc4cccnc34)C2)cc1OC (stereo not given)	15%	-5	4%	-2.3%
CC(=O)Nc1ccc(C(=O)N/N=C/c2cc(Br)cc(Br)c2O)cc1	0%	3	?	?
COc1ccc(N(C(=O)COc2ccccc2)C2C=CS(=O)(=O)C2)c(OC)c1 (stereo not given)	-4%	9	-11%	2.0%
CCOCCCNC(=O)CCCC1=NS(=O)(=O)c2ccccc2N1	-10%	-3	-7%	1.1%
CCCOc1ccc(/C=C2/C(=O)ON=C2C)cc1Cl	2%	/	-9%	-0.6%
C(=C\c1ccccn1)/c1ccccn1	-47%	4	7%	-0.1%
(continued)
SMILES	miR-21 reporter	GLA inh pH 4.5	Rango dissoc inh	Rango-impB inh
C=C(C)C(=O)Oc1ccc(N=Nc2ccc(C)cc2)ccc1=O	/	/	-15%	-2.5%
COc1cc(S(=O)(=O)NCc2ccc3c(c2)OCO3)ccc1F	-6%	/	7%	0.1%
CC(=O)c1ccc(Oc2cnccn2)cc1	-3%	-10	-5%	-2.2%
O=C(O)[C@H]1CCCC[C@H]1C(=O)NCCc1ccccc1	-4%	9	21%	-0.5%
Cn1c(SCc2cc([N+](=O)[O-])cc3c2OCOC3)nnc1-c1ccccn1	4%	5	-6%	7.5%
CC(CC(=O)Nc1ccccc1)n1ccnc1 (stereo not given)	-3%	5	-3%	-1.3%
Cc1ccccc1Oc1ncnc(N)c1[N+](=O)[O-]	-7%	2	8%	3.5%
CCCN(C(=O)c1cc2c(s1)CCC2)c1c(N)n(Cc2ccccc2)c(=O)[nH]c1=O	-8%	-4	-22%	-5.4%
O=C1CN(S(=O)(=O)c2ccc(Cl)cc2)CC(=O)N1CCc1ccccc1	0%	6	6%	6.5%
CC1CCCCN1CCCNC(=O)c1ccc(Br)cc1 (stereo not given)	-3%	/	-9%	-7.9%
O=C(CN1CCN(c2ccc(F)cc2)CC1)NC(=O)NCc1ccco1	1%	-1	0%	-1.4%
CCOc1cc(CNCCc2ccc(S(N)(=O)=O)cc2)ccc1OCc1ccc(Cl)cc1	?	-11	5%	-1.4%
COc1ccc(C2(C)NC(=O)N(CC(=O)NC(C)c3ccc(CC(C)C)cc3)C2=O)cc1 (stereo not given)	15%	/	-10%	-2.4%
Cc1nc(NC(=O)CCc2ccccc2)sc1C	-32%	/	-2%	-1.3%
CCCCOc1ccc(C(=O)Nc2ccc(C)cc2[N+](=O)[O-])cc1	-2%	-6	4%	-1.5%
COc1ccc(C(=O)N2CCn3c2nc2ccccc23)cc1	-26%	-6	-6%	-1.4%
O=C(Cn1ncc2c([nH]c3ccccc32)c1=O)NCC1CCN(Cc2ccccc2F)CC1	1%	/	1%	0.1%
CC(C)c1nc2cc3ccccc3cc2[nH]1	-36%	-2	0%	0.9%
CCOc1ccc(C2c3cc(OC)c(OC)cc3CC(=O)N2c2ccc(OC)cc2)cc1 (stereo not given)	11%	-3	-7%	-0.1%
O=C(Nc1c2c(nn1-c1ccccc1)CS(=O)C2)c1ccc(Br)o1 (stereo not given)	-2%	/	-7%	2.5%
CCCCn1c(N)c(N(CCOC)C(=O)c2ccc(S(=O)(=O)N3CCCCC3)cc2)c(=O)[nH]c1=O	/	/	5%	-1.5%
COc1ccc(C(=O)c2c(-c3ccsc3)oc3ccc(-c4ccc(OC)cc4)cc23)cc1	/	/	-3%	?
Cc1ccc(NC(=S)Nc2ccc3cn[nH]c3c2)cc1C	-6%	1	-9%	-1.3%

Some entries already given with just miR-21 reporter and Rango dissoc inh:
Molecule	miR-21 reporter	Rango dissoc inh
O=C(Cn1ncc2c([nH]c3ccccc32)c1=O)NCC1CCN(Cc2ccccc2F)CC1	1%	1%
CC(C)c1nc2cc3ccccc3cc2[nH]1	-36%	0%
CCOc1ccc(C2c3cc(OC)c(OC)cc3CC(=O)N2c2ccc(OC)cc2)cc1 (stereo not given)	11%	-7%
O=C(Nc1c2c(nn1-c1ccccc1)CS(=O)C2)c1ccc(Br)o1 (stereo not given)	-2%	-7%
CCCCn1c(N)c(N(CCOC)C(=O)c2ccc(S(=O)(=O)N3CCCCC3)cc2)c(=O)[nH]c1=O	/	5%
COc1ccc(C(=O)c2c(-c3ccsc3)oc3ccc(-c4ccc(OC)cc4)cc23)cc1	/	-3%
Cc1ccc(NC(=S)Nc2ccc3cn[nH]c3c2)cc1C	-6%	-9%

Another view of three compounds above.
Every second line gives: miR-21 reporter | GLA inh pH 4.5 | Rango dissoc inh | Rango-impB inh
> CCOc1ccc(C2c3cc(OC)c(OC)cc3CC(=O)N2c2ccc(OC)cc2)cc1 (stereo not given)
 : 11% | -3 | -7% | -0.1%
> O=C(Nc1c2c(nn1-c1ccccc1)CS(=O)C2)c1ccc(Br)o1 (stereo not given)
 : -2% | / | -7% | 2.5%
> CCCCn1c(N)c(N(CCOC)C(=O)c2ccc(S(=O)(=O)N3CCCCC3)cc2)c(=O)[nH]c1=O
 : / | / | 5% | -1.5%
